KAT2A inh = inhibitors of human GCN5L2 histone acetyltransferase; Q92830; GCN5L2 HAT assay, ThioGlo1 CoA-SH fluorescence; Potency, µM (highest dose often 58.9 µM), for inactives: at the highest dose activity change, negative = inhibition, actives largely listed as inhibitors; hit rate 0.21% among 390,000; active = well fitted inhibition curve with a large enough effect; inconclusive = small, poorly fitted or top-dose-only effect, or another doubt; inactive = no such curve, though single readings can be large or run the other way
Target sequence (Q92830 whole entry, looked up): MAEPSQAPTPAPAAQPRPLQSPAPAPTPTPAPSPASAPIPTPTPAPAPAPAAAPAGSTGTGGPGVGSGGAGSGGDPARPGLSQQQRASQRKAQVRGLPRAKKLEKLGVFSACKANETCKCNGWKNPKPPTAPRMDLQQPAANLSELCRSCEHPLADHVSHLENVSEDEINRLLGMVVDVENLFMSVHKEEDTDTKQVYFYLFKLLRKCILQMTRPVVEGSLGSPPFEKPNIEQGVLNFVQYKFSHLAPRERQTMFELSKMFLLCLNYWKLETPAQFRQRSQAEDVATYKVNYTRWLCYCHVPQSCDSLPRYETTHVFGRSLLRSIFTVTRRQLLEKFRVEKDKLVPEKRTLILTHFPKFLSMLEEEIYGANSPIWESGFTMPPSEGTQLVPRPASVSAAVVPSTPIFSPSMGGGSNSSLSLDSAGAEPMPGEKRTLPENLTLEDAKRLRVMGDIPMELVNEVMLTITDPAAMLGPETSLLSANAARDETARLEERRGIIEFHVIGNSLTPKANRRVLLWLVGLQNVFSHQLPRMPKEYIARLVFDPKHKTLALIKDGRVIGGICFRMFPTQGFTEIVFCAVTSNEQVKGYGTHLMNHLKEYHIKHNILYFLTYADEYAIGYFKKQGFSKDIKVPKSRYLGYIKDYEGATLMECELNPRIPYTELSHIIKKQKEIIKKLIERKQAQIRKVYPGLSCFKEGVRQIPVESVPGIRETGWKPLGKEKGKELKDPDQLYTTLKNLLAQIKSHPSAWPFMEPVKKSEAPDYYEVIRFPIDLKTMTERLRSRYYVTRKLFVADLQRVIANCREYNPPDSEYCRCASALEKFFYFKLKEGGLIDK
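qHTS, 1536-well. 20nM enzyme, pH 7.5 HEPES/EDTA/Tween-20 buffer; 15 min compound preinc., RT. Start: 75uM H3(1-25), 70uM AcCoA, 50uM ThioGlo1. Read Ex340/Em540 at t=0 (autofluorescence flag) and t=20 min.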
The depositor's hits bear a star; ? = inconclusive; & = joins results of further samples; [ ] = another dose, or the depositor's remark. % is scaled to controls: 0 for no effect and ±100 for the full control effect; potency is read from the fitted curve at half-maximal effect.

molecule,KAT2A inh
COc1cccc(NS(=O)(=O)c2ccc3[nH]cc(C(=O)N4CCCC4)c(=O)c3c2)c1,2%
COc1cc2c(cc1OC)C(C(=O)N1CCN(c3ccccc3)CC1)C(c1cccs1)N(C)C2=O (stereo unspecified),-1%
COc1ccc(Cl)cc1NC(=O)C(C)N1CCc2ccccc21 (stereo unspecified),-8%
Cc1ccc(NC(=O)c2oc3ccccc3c2NC(=O)C23CC4CC(CC(C4)C2)C3)cc1,-12%
Cc1cc(C)nc(SCc2cnc(C)nc2N)n1,0%
CCC(C)[C@H](NC(=O)NCc1ccccc1Cl)C(=O)OC (stereo partly specified),1%
Cn1c(=O)cc(SCC(=O)Nc2ccc3c(c2)OCO3)c2ccccc21,-5%
CC1(C)CC(=O)c2cc(-c3nc(-c4ccc(Br)cc4)cs3)c(=O)n(-c3ccccc3)c2C1,-5%
O=C(CCC1N=C2c3ccccc3N=C(SCc3cccc(Cl)c3)N2C1=O)NCc1ccco1 (stereo unspecified),-1%
CC(Oc1ccccc1F)c1nnc(SCC(=O)NCc2ccc3c(c2)OCO3)o1 (stereo unspecified),1%
C/C(N)=C(/C#N)C(=O)COC(=O)c1cc(-c2cccc3ccccc23)nc2ccccc12,-21%
CCc1nn(CC(=O)Nc2ccc(Br)c(C)c2)c(=N)s1,-10%
C=CCOC(=O)COc1ccc2c(C)c(C)c(=O)oc2c1C,-4%
COc1ccc2[nH]c(=O)c(CN(CCCN(C)C)C(=O)Nc3ccc(F)cc3)cc2c1,-4%
Cc1ccc(-n2ncc3c(NCCCN4CCOCC4)ncnc32)c(C)c1,0%
CC(NC(=O)COC(=O)C1CCN(S(=O)(=O)c2ccccc2C(F)(F)F)CC1)c1ccccc1 (stereo unspecified),-3%
C=CCCC(=O)Nc1nc(C)c(-c2csc(Nc3cc(Cl)ccc3OC)n2)s1,-9%
O=S(=O)(NCCOc1ccccc1F)c1ccc(Cl)cc1F,-5%
CN(C(=O)CCNC(=O)N1CC(=O)Nc2ccccc21)C1CCCCC1,-17%
C[C@@]12C=CC(=O)C=C1CC[C@@H]1[C@@H]2[C@H](O)C[C@]2(C)[C@@H]1CC[C@]2(O)C(=O)CO,?
CCOc1ccc(NC(=O)N2CCC(NC(=O)C(Cc3ccccc3OC)NC(C)=O)CC2)cc1 (stereo unspecified),2%
Cc1cc(-c2nn(-c3ccccc3F)cc2CNCCc2cnc[nH]2)c(C)s1,-21%
CCOc1ccccc1NC(=O)C1CCN(S(=O)(=O)c2c(C)noc2/C=C/c2ccc(C)cc2)CC1,4%
Cc1ccc(S(=O)(=O)N2CCN(C(=O)N(c3ccccc3)c3ccccc3)CC2)cc1,-2%
Cc1ccn2c(=O)nc(SCC(=O)N3CCCc4ccccc43)nc2c1,-22%
COC(=O)[C@@H]1C[C@@]2(O)[C@@H](O)[C@@H](O)[C@@H](O)C[C@H]2N1Cc1ccc(C(F)(F)F)cc1,26%
COc1cccc2cc(C(=O)OCc3ccccc3)c(=O)oc12,0%
Cc1ccc(N2CC(C(=O)OCC(=O)c3ccc(F)cc3)CC2=O)cc1 (stereo unspecified),-6%
O=C(CSc1cn[nH]n1)Nc1ccccc1C(F)(F)F,-3%
COc1ccc(CNC(=O)c2ccc(NC(=O)N3CCSc4ncccc43)cc2)c(OC)c1,-2%
COc1cc(/C=C(/C#N)c2nc3ccccc3[nH]2)ccc1OC(=O)c1ccco1,-7%
O=C(NC1CCCCC1)N1CCCC1,-7%
COc1ccc(OC)c(NC(=O)C(CCSC)NS(=O)(=O)c2cccs2)c1 (stereo unspecified),-7%&-8%
COc1cccc(NC(=O)CCCNC(=O)Cn2cnc3sc(C)c(C)c3c2=O)c1,-3%
Cc1ccc(C)c(C(C)NC(=O)c2ccccc2Br)c1 (stereo unspecified),1%
CC(C)(C)c1ccc(-c2nc(S(=O)(=O)c3ccccc3)c(N3CCOCC3)o2)cc1,-4%
CCOc1nc(-c2ccccc2Cl)nc2ccccc12,-1%
CC(C)CNC(=O)C1CCCN(S(=O)(=O)c2ccc(-n3cnnn3)cc2)C1 (stereo unspecified),0%
NC(=O)c1nsc(C(=O)N(c2ccccc2F)C(C(=O)NCc2ccc(F)cc2)c2ccc(O)cc2)c1N (stereo unspecified),-7%
NC(=O)c1nn(-c2ccccc2)nc1NC(=O)CN1CCCCC1,-1%
COc1cc2c(cc1OC)CN(c1ccc3ccccc3n1)CC2,-9%
Cc1cc(C)nc(NS(=O)(=O)c2ccc(NC(=O)c3ccc4c(c3)OCCO4)cc2)n1,4%
COc1ccc(-c2csc(N3CCC(C(N)=O)(N4CCCCC4)CC3)n2)cc1,-7%
Cc1ccc(-n2nc3c(=O)n(C(C)C(=O)NCCc4cccs4)nc(C)c3c2C)cc1 (stereo unspecified),0%
CC(=O)Nc1ccc(S(=O)(=O)NCC(=O)OCc2ccccc2)cc1,0%
COc1cccc(C(C(=O)NC2CCCC2)N(Cc2ccc(C)cc2)C(=O)c2ccco2)c1OC (stereo unspecified),-3%
CCOc1ccccc1CNS(=O)(=O)c1cc(-c2onc(C)c2C)ccc1OC,-2%
CCCCn1ccnc1C(=O)c1ccc(S(=O)(=O)N(CCOC)CCOC)cc1,-7%
O=C(O)C1CCN(C(=O)COc2ccc(Br)cc2)CC1,2%
COc1ccc(OC)c(NC(=O)C2CCN(c3ncccn3)CC2)c1,-7%
Cc1nn(-c2ccc(F)cc2)c(Cl)c1/C=N/NC(=O)c1cccc(S(=O)(=O)N2CCCC2)c1,-7%
O=C(CNC(=O)C12CC3CC(CC(C3)C1)C2)N1CCN(S(=O)(=O)c2cccs2)CC1,0%
CCOC(=O)N1CCN(C(=O)c2ccc(CNS(=O)(=O)c3ccc(NC(C)=O)cc3)cc2)CC1,-5%
CC(C)OC(=O)/C(=C/c1ccc(Br)cc1)NC(=O)c1ccco1,0%
C[C@H](CO)N1C[C@H](C)[C@@H](CN(C)CC2CCCCC2)Oc2c(NS(=O)(=O)c3cccs3)cccc2C1=O,-1%
CCOC(=O)c1cc(NC(=O)c2ccc(Cl)cc2)c(=O)n2c1oc1ccc(Cl)cc12,1%
O=C(Nc1ccncc1)C1(c2ccccc2)CCCC1,-7%
COc1ccc(C2Nc3ccccc3C(=O)N2Cc2ccccc2)cc1CN1CCOCC1 (stereo unspecified),-1%
Cc1ccc(C)c(OCCC(=O)NNC(=O)c2cc(C)oc2C)c1,-5%
O=C(c1ccc(-c2cccc(C(F)(F)F)c2)o1)N1CCN(c2ccccc2O)CC1,-10%

The list continues.
Structure,KAT2A inh
COC(=O)c1sccc1N/C=C(\C#N)S(=O)(=O)C(C)(C)C,-2%
COc1ccccc1C(=O)N=c1sc2c(C)ccc(OC)c2n1C,-15%
COc1ccc(COCC(CC(C)C)N2CCN(C(=O)c3cccc(C(F)(F)F)c3)CCC2=O)cc1 (stereo unspecified),-2%
CC(OC(=O)c1ccc(NC(=O)CC#N)cc1)C(=O)NCCC1=CCCCC1 (stereo unspecified),-7%
CCOc1ccc(CNC(=O)C2CCN(c3nnc(-n4c(C)ccc4C)s3)CC2)cc1,-7%
CCOc1ccc(NC(=O)C(NS(=O)(=O)c2ccc3c(c2)CCN3C(C)=O)C(C)C)cc1 (stereo unspecified),-3%
O=C(COc1ccc2c(-c3ccccc3)cc(=O)oc2c1)Nc1cccnc1,-7%
CCC1CCCCN1S(=O)(=O)c1ccc(C(=O)Nc2nnc(C3=COCCO3)o2)cc1 (stereo unspecified),-25%
O=S1(=O)CC2NC(=S)N(c3cccc(Br)c3)C2C1 (stereo unspecified),-30%
Nc1ncnc2c1ncn2[C@@H]1O[C@H](CN2CCCS2(=O)=O)[C@@H](O)[C@H]1O,3%
C=CCOC(=O)c1ccccc1C(=O)OCC=C,-2%
Cc1ccc(NC(=O)CSc2ccc3nnc(-c4ccccn4)n3n2)cc1,-8%
CCS(=O)(=O)c1ccc2c(c1)N(S(C)(=O)=O)CC(C(=O)NCc1ccccc1OC)O2 (stereo unspecified),-24%
CNS(=O)(=O)/C=C/c1ccccc1,-3%
O=C(O)C1CCN(S(=O)(=O)c2cccc3cccnc23)CC1,2%
CCOC(=O)N1CCN(CC(O)COc2c(C)cccc2C)CC1 (stereo unspecified),-6%
COc1cc2c(cc1OC)C(C(=O)Nc1ccc(F)c(Cl)c1)CC(=O)N2 (stereo unspecified),0%
O=C(CCc1nc(-c2cccs2)no1)NCc1ccc(F)cc1Cl,-2%
CC(Sc1ncccn1)C(=O)Nc1ccc2c(c1)OCO2 (stereo unspecified),-3%
CCOC(=O)Nc1ccc(C)cc1Br,-3%
C=C(C)C1CC=C(C)/C(=N/NC(=O)COc2ccc(C)cc2)C1 (stereo unspecified),-2%
Fc1ccc(-c2nc(-c3cccs3)[nH]c2-c2ccc(F)cc2)cc1,-11%
CCCn1c(SCC(=O)Nc2ccccc2Oc2ccccc2)n[nH]c1=O,-11%[0.501 µM]
OC(c1ccccn1)C1CCN(Cc2nc(C(c3ccccc3)c3ccccc3)no2)CC1 (stereo unspecified),-3%
Cc1cc(C)cc(NC(=O)c2ccc(N3C(=O)C4CCCCC4C3=O)cc2)c1 (stereo unspecified),4%
CCOC(=O)c1cc(-c2ccccc2)sc1NC(=S)Nc1cccc(C)n1,-17%
COc1cccc(C(=O)NNC(=O)CCN2CCN(c3ccccc3)CC2)c1,1%
CCc1noc(C)c1C(=O)N1CCC(CCC(=O)Nc2cccc(C)c2)CC1,-2%
CC(C)C(=O)N1C2CCC1CC(O)(c1ccc(F)cc1)C2 (stereo unspecified),-10%
COc1ccccc1NC(=O)c1ccc(NC(=O)CN2CCCC2)cc1,-3%
O=C(CN1CCN(c2ccccc2F)CC1)Nc1ccc2c(c1)CCC2,-8%
O=C(Nc1cccc(NC(=O)c2sc3ccccc3c2Cl)c1)c1ccco1,1%
Cn1cc(/C=C/C(=O)N2CCCC(C(=O)c3cccc4ccccc34)C2)cn1 (stereo unspecified),-1%
CC(C)(C)n1nnnc1C(c1ccc(F)cc1)N1CCC(C(N)=O)CC1 (stereo unspecified),-3%
CCCNC(=O)CN(c1cccc(F)c1)S(C)(=O)=O,1%
Cc1cc(NC(=O)c2c(Cl)cnn2C)no1,-9%
O=C1[C@H]2[C@@H](c3ccc(F)cc3)N3C(=O)N(c4cccc(F)c4)C(=O)[C@@]3(Cc3ccccc3)[C@H]2C(=O)N1C1CCCCC1,-7%
COc1ccc(C2C(C(=O)Nc3ccccc3)=C(C)N=C3SCC(=O)N32)cc1 (stereo unspecified),-2%
COc1ccccc1CCNS(=O)(=O)c1cn(C)nc1C,-4%
Cc1ccc(CN(C)CC(=O)Nc2cccc([N+](=O)[O-])c2)o1,-3%

Reformatted field by field: part of the list above
Cc1cc(NC(=O)c2c(Cl)cnn2C)no1
  KAT2A inh: -9%
O=C1[C@H]2[C@@H](c3ccc(F)cc3)N3C(=O)N(c4cccc(F)c4)C(=O)[C@@]3(Cc3ccccc3)[C@H]2C(=O)N1C1CCCCC1
  KAT2A inh: -7%
COc1ccc(C2C(C(=O)Nc3ccccc3)=C(C)N=C3SCC(=O)N32)cc1 (stereo unspecified)
  KAT2A inh: -2%

6 entries already listed, arranged by the number in KAT2A inh, descending:
Structure,KAT2A inh
COc1cccc(C(=O)NNC(=O)CCN2CCN(c3ccccc3)CC2)c1,1%
CCc1noc(C)c1C(=O)N1CCC(CCC(=O)Nc2cccc(C)c2)CC1,-2%
COc1ccccc1NC(=O)c1ccc(NC(=O)CN2CCCC2)cc1,-3%
O=C1[C@H]2[C@@H](c3ccc(F)cc3)N3C(=O)N(c4cccc(F)c4)C(=O)[C@@]3(Cc3ccccc3)[C@H]2C(=O)N1C1CCCCC1,-7%
O=C(CN1CCN(c2ccccc2F)CC1)Nc1ccc2c(c1)CCC2,-8%
Fc1ccc(-c2nc(-c3cccs3)[nH]c2-c2ccc(F)cc2)cc1,-11%

Quoted from the listing.
KAT2A inh, COc1ccc(C2C(C(=O)Nc3ccccc3)=C(C)N=C3SCC(=O)N32)cc1 (stereo unspecified) is entered as -2%
KAT2A inh, CCCNC(=O)CN(c1cccc(F)c1)S(C)(=O)=O is entered as 1%
KAT2A inh, Cc1ccc(CN(C)CC(=O)Nc2cccc([N+](=O)[O-])c2)o1 is entered as -3%

Remaining list, next part:
Structure,KAT2A inh
CC(=O)N1c2ccc(S(=O)(=O)NCC3CCC(C(=O)N4CCCCC4)CC3)cc2CC1C (stereo unspecified),-3%
O=C(NCc1ccccc1Br)c1ccncc1,-3%
C=CCn1c(SCC(=O)Nc2ccc(F)cc2F)nc2c([nH]c3ccccc32)c1=O,1%
Cc1cccc(C(=O)Nc2cc(Cl)ccc2-n2cncn2)c1[N+](=O)[O-],-24%
Cc1cc(C)cc(CC2CC(=O)N(c3ccc4c(c3)OCCO4)C2=O)c1 (stereo unspecified),-16%
O=c1o[nH]c(-c2ccccc2)c1C1=NCCCCC1,-5%
O=C(COc1coc(CN2CCc3ccccc3C2)cc1=O)Nc1cccc(Cl)c1,1%
CC(/C=N/NC(=O)c1ccncc1)=C\c1ccco1,-10%
Cc1cc(C)c2c(=O)cc(C(=O)Nc3ccc(C)c(Cl)c3)oc2c1,-18%
c1ccc(-c2nnc(-c3ccccc3)o2)cc1,-6%
Cn1ncc2c(NNC(=O)Cc3cccc4ccccc34)ncnc21,1%
CCOc1cccc(C(=O)Nc2cc(-c3nn4c(C)nnc4s3)ccc2C)c1,-7%
COC(=O)CSc1nc(-c2ccc(F)cc2)cc(C(F)(F)F)n1,9%&-5%
CC(OC(=O)C1CC1)C(=O)Nc1cc(Cl)cc(Cl)c1 (stereo unspecified),-1%
COc1cc(NC(=S)Nc2ccc(S(=O)(=O)N3CCOCC3)cc2)cc(OC)c1OC,0%

Screens deposited in PubChem BioAssay by National Center for Advancing Translational Sciences (NCATS).

These rows are one share of the data; most or all hits stand in other tables.
